Insulin prom inh: TRM-6 insulin promoter activity inhibition | inhibition, % at 2 µM | TRM-6 cells (human fetal islet line), insulin promoter-eGFP reporter, imaging; reporter expression induced with tamoxifen | AID 1273 | 0.9% of 130,000 active;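 active = inhibition above the mean plus 3 SD, with well images judged a real hit on visual review, cut at about 60% in these data, passing the limit was not always enough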
HSV augment: HSV replication enhancement. 0.005% of 220,000 active. maximum fold increase. AID 1956. HSV replication augmentation in cells, fold increase;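 active = peak rise of 1.5-fold or more in the series; tested in PC3 cells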;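 note: first round at 10 µM; read as green reporter fluorescence; hits show the peak of a series up to 25 µM; 1 = signal of infected wells without compound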
GALR2 agonist: activates the human galanin receptor 2; GALR2-expressing cells, agonist activation read-out; activation, %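 (tested at 5 µM)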; 0.48% of 140,000 active; AID 803;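 active = above mean plus 3 SD of all compounds, about 5% in these data, not always enough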;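 note: 0% = vehicle buffer wells and 100% = reference agonist at full effect; tested in CHO reporter cells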
Target sequence (O43603 whole entry, looked up): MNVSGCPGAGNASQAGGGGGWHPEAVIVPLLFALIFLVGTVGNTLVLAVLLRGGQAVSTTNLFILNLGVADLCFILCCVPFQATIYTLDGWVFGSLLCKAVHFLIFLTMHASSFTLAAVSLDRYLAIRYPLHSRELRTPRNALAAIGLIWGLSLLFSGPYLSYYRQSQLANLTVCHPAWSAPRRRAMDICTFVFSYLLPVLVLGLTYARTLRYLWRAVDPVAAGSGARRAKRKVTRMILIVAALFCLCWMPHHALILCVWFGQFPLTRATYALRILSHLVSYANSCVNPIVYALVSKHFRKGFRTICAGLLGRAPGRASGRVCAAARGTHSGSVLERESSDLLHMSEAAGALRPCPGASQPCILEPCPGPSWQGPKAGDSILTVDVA
PKD1 kinase inh: inhibitors of human PKD1 kinase. PKD1 kinase fluorescence polarization assay. 0.056% of 200,000 active. AID 797. inhibition, %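 (about 10 µM by stock and volumes)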. Q15139;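 active = inhibition of 50% or more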;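 note: controls were vehicle for no effect and a reference inhibitor for full effect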
RGS16-Gao: RGS16-Galphao interaction regulator (human); bead-based flow cytometry RGS16-Galphao binding, fluorescence; actives lie on both sides; 0.38% of 220,000 active; O15492+P09471; binding response (% of control), % at 10 µM;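 active = below 25% or above 175%, edge rows of some plates excepted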;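 note: Galphao activated by GDP with aluminum fluoride before binding; 100% = wells without compound and 0% = beads without RGS; some results beyond the cut were filed as inactive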
Target sequence (O15492 whole entry, looked up): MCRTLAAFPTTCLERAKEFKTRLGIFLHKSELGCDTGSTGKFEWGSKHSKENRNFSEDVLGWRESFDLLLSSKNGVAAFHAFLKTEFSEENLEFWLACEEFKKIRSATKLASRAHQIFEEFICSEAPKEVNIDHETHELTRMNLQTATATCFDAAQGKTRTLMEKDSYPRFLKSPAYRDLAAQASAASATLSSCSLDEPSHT
Target sequence (P09471 whole entry, looked up): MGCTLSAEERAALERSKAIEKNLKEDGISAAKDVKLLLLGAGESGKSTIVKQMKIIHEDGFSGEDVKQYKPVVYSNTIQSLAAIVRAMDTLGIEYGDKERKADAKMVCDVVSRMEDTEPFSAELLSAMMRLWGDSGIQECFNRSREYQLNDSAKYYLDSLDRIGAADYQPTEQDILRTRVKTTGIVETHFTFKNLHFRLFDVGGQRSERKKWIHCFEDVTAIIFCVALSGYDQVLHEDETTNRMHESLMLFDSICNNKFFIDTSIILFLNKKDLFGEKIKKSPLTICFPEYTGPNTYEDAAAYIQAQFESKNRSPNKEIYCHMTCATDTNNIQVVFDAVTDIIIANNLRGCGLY
Insulin prom inh cell count: also measured in Insulin prom inh; calls as there; normalized cell count, %; measured here: cell count, toxicity; reference of the scale not given here;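 cells exposed to compound for 48 h; stained nuclei by imaging scaled within each plate; lower means fewer cells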
HSV augment primary fold: second read-out of HSV augment, no call of its own (marks repeat the call); fold increase; compound at 10 µM; measured here: primary screen fold increase 10 uM; tested in PC3 cells;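 GFP signal in the first replicate; 1 = infected wells without compound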
An asterisk follows results filed as active; i = inactive; · = no result given.

A first look:
canonical_smiles | Insulin prom inh | Insulin prom inh cell count | HSV augment | HSV augment primary fold | GALR2 agonist | PKD1 kinase inh | RGS16-Gao
CCCOc1ccc(/C=N/NC(=S)Nc2ccccc2[N+](=O)[O-])c(O)c1 | 35 | 76 | i | 0.59 | -0.6 | -5 | 105
CN(c1cccc(NC(=O)CSc2ccc(Cl)cc2)c1)S(C)(=O)=O | -11 | 123 | i | 1.1 | -0.7 | -6 | 92
Cc1cc2c(C)nc(Cc3ccccc3)nc2o1 | -29 | 162 | i | 0.84 | 3.3 | -9 | 112
CCS(=O)(=O)c1ccc2oc(SCC(=O)NCc3ccccc3)nc2c1 | 42 | 99 | i | 1.1 | · | 1 | 98
COc1ccc(CCNC(=O)COC(=O)COc2ccc(Cl)cc2)cc1OC | 64 | 125 | i | 0.92 | · | 1 | 142

The listing, repeating the preview:
canonical_smiles | Insulin prom inh | Insulin prom inh cell count | HSV augment | HSV augment primary fold | GALR2 agonist | PKD1 kinase inh | RGS16-Gao
CCCOc1ccc(/C=N/NC(=S)Nc2ccccc2[N+](=O)[O-])c(O)c1 | 35 | 76 | i | 0.59 | -0.6 | -5 | 105
CN(c1cccc(NC(=O)CSc2ccc(Cl)cc2)c1)S(C)(=O)=O | -11 | 123 | i | 1.1 | -0.7 | -6 | 92
Cc1cc2c(C)nc(Cc3ccccc3)nc2o1 | -29 | 162 | i | 0.84 | 3.3 | -9 | 112
CCS(=O)(=O)c1ccc2oc(SCC(=O)NCc3ccccc3)nc2c1 | 42 | 99 | i | 1.1 | · | 1 | 98
COc1ccc(CCNC(=O)COC(=O)COc2ccc(Cl)cc2)cc1OC | 64 | 125 | i | 0.92 | · | 1 | 142
O=S(=O)(c1ccc(Cl)cc1)N1CCC(O)(CN2CCN(Cc3ccccc3)CC2)CC1 | · | · | i | 0.94 | · | 18 | 101
Cc1cccc(C)c1-n1nnnc1S(=O)(=O)Cc1ccccc1Cl | -13 | 130 | i | 0.97 | -1.7 | -4 | 66
Cc1nc2c(cc(Oc3ccc(S(=O)(=O)N4CCOCC4)cn3)c3ccsc32)s1 | · | · | i | 0.96 | 0.1 | -2 | 101
CCOC(=O)c1cnc(-c2ccccc2O)nc1Cl | · | · | i | 0.97 | · | 2 | 106
CCCCOc1ccc(CC(=O)NCC(=O)O)cc1 | 26 | 120 | i | 0.99 | -1.1 | -5 | 95
CCC(CC)C(=O)OCC(=O)Nc1cc(OC)c([N+](=O)[O-])cc1C | 64* | 122* | i | 0.97 | -0.4 | -10 | 38
Cc1ccc(S(=O)(=O)N2CCC(C(=O)NCc3ccncc3)CC2)cc1 | 13 | 108 | i | 0.73 | -1.4 | -5 | 99
CC(=O)Nc1ccc(OCc2cccc([N+](=O)[O-])c2)cc1 | 24 | 99 | i | 1.2 | · | -4 | 100
CN(C)c1ccc(/C=C/c2ccc3c4ccccc4ccc3[n+]2-c2ccccc2)cc1 | · | · | · | · | · | 1 | 89
Cc1cccc(NC(c2ccc(C)s2)c2ccc3ccc(C)nc3c2O)n1 (centres undefined) | · | · | i | 0.88 | -2.6 | -1 | 92
COc1ccccc1CNC(=O)c1ccc2c(=O)n(CCCN3CCCC3=O)c(=S)[nH]c2c1 | 43 | 112 | i | 0.79 | · | 5 | 97
Cc1ccc(C)c(NC(=O)Cn2nnc(C(=O)NCc3cccs3)c2N)c1 | 4 | 116 | i | 0.85 | -0.5 | -8 | 88
O=C(O)c1n[nH]nc1-c1ccccc1 | 5 | 149 | i | 0.95 | · | 2 | 104
CCOC(=O)C1CCCN(C(=S)Nc2cccc(Cl)c2C)C1 (centres undefined) | · | · | i | 0.99 | 0.4 | 8 | 103
Cc1nnsc1C(=O)N1CCN(c2ccc(C#N)cn2)CC1 | · | · | i | 0.82 | · | · | 96
CNS(=O)(=O)c1ccc(NC(=O)Nc2cccc(F)c2)cc1 | · | · | i | 0.74 | · | 1 | 104
COC(=O)c1cccc(C(=O)N2CCCC(CNC(=O)c3ccccc3Cl)C2)c1 (centres undefined) | · | · | i | 1 | · | · | 119
COCCCNC(=S)NNC(=O)c1csc2ccccc12 | · | · | i | 0.9 | -1.8 | -1 | 69
CCCCn1c(SCn2nnc3ccccc3c2=O)nc2cc(S(N)(=O)=O)ccc21 | -9 | 111 | i | 1 | -1.7 | 3 | 99
O=C(CCC(=O)c1cccs1)NCc1ccc(Cl)cc1 | 70* | 105* | i | 0.94 | -3.5 | -11 | 96
COc1ccc(NC(=O)c2ccc(F)cc2)cc1S(=O)(=O)Nc1cc(C)ccc1Br | -18 | 134 | i | 0.71 | 0.1 | -2 | 96
CC1=CC2=NC(=O)CC(C)(C(=O)N(CC(=O)NC3CCCC3)c3cc(C)cc(C)c3)N2C=C1 (centres undefined) | · | · | i | 1.1 | · | 0 | 100
Cc1nn(CC(=O)NCc2ccco2)c(C)c1[N+](=O)[O-] | · | · | i | 0.97 | · | · | 98
COc1cccc(C2C(=O)c3ccccc3C2=O)c1 | · | · | i | 1.1 | · | · | 101
COc1cc(/C=N\N=C2/SC(CC(=O)O)C(=O)N2c2ccc(O)cc2)ccc1O (centres undefined) | -84 | 96 | i | 0.72 | -2.4 | -7 | 106

As entered above.
PKD1 kinase inh result of COc1ccccc1CNC(=O)c1ccc2c(=O)n(CCCN3CCCC3=O)c(=S)[nH]c2c1 → 5
PKD1 kinase inh result of CCS(=O)(=O)c1ccc2oc(SCC(=O)NCc3ccccc3)nc2c1 → 1
HSV augment primary fold result of CN(c1cccc(NC(=O)CSc2ccc(Cl)cc2)c1)S(C)(=O)=O → 1.1
PKD1 kinase inh result of CC1=CC2=NC(=O)CC(C)(C(=O)N(CC(=O)NC3CCCC3)c3cc(C)cc(C)c3)N2C=C1 (centres undefined) → 0
PKD1 kinase inh result of CCCCn1c(SCn2nnc3ccccc3c2=O)nc2cc(S(N)(=O)=O)ccc21 → 3
RGS16-Gao result of CCCOc1ccc(/C=N/NC(=S)Nc2ccccc2[N+](=O)[O-])c(O)c1 → 105

Further compounds
canonical_smiles | Insulin prom inh | Insulin prom inh cell count | HSV augment | HSV augment primary fold | GALR2 agonist | PKD1 kinase inh | RGS16-Gao
COCCn1cc(C(=O)NCc2ccco2)c2c3ccccc3n(C)c2c1=O | -117 | 102 | i | 0.87 | · | -5 | 98
Cc1nn(-c2ccccc2)c(C)c1/C=N/n1c(-c2ccncc2)n[nH]c1=S | · | · | i | 0.93 | · | 0 | 102
Cc1ccc2c(c1)C(c1ccncc1)=NNC(c1ccc(C(C)C)cc1)=N2 | -23 | 68 | i | 0.96 | 0.1 | 9 | 90
O=C(CSc1cccs1)Nc1ccc(Cl)cc1 | · | · | i | 1.3 | · | · | 98
Cc1cc[n+](-c2nc3ccccc3nc2[N-]S(=O)(=O)c2ccccc2)cc1 | · | · | i | 1.4 | -0.1 | 6 | 103
NC(=O)COC(=O)c1ccccc1Nc1ccc(SC(F)F)cc1 | 3 | 119 | i | 0.9 | -0.3 | -17 | 101
O=C(c1cccs1)N1CCC(c2ccccc2)C1 (centres undefined) | 79* | 76* | i | 0.93 | -2.1 | 3 | 102
O=C(O)C1CCCN1S(=O)(=O)c1ccc2[nH]c(=O)c(=O)[nH]c2c1 (centres undefined) | -59 | 94 | i | 0.87 | -3.3 | -3 | 161
CCc1ccc(Nc2ncc3c(n2)CC(C)(C)CC3=O)cc1 | · | · | i | 0.9 | · | · | 102
COc1cc(CN2CCSCC2)cc(OC)c1OC | · | · | i | 1.1 | -1.7 | -10 | 149
Cc1ccc(NS(=O)(=O)c2ccc3c(c2)c(=O)n(C)c(=O)n3C)cc1F | -41 | 45 | i | 1 | -1.0 | 4 | 93
COC(=O)c1ccc(NC(=O)CNC(=O)C2CCCCC2)c(C)c1 | 0 | 124 | i | 0.94 | -0.7 | 3 | 80
C/C(N)=C(/C#N)C(=O)CSc1nnc(-c2ccccc2)n1C | · | · | i | 1.2 | · | · | 81
CC1CCCC(C)N1C(=O)c1cc(F)c(F)cc1Cl (centres undefined) | 39 | 109 | i | 0.93 | -1.9 | 4 | 109
Cc1ccc(S(=O)(=O)NCC(=O)NCC(=O)OCC(=O)NC(=O)NC(C)(C)C)cc1C | 44 | 108 | i | 0.93 | · | -1 | 100
Cn1c(=O)c(/C=C/c2ccc(F)cc2)nc2ccccc21 | · | · | i | 1 | · | 1 | 44
COc1ccc(COCC(O)CN2CC(C)OC(C)C2)cc1OC (centres undefined) | -16 | 124 | i | 0.94 | -2.9 | 2 | 104
NC(=O)CC(NC(=O)Cc1ccc(Br)cc1)c1ccc(NC2CCC2)c([N+](=O)[O-])c1 (centres undefined) | · | · | i | 0.92 | · | · | 99
CCOC(=O)c1[nH]cnc1N=Nc1c(O)ccc2ccccc12 | 21 | 113 | i | 1.1 | -0.7 | -7 | 106
C=CCn1c(SCc2nc3ccccc3[nH]2)nnc1-c1ccncc1 | 41 | 105 | i | 1.1 | -0.2 | -2 | 108
COc1ccc(C(=O)N/N=C/c2cccc3cccnc23)cc1 | · | · | · | · | -1.6 | 3 | 102
CC(C)=C(NC(=O)c1ccccc1)C(=O)NCCCC(=O)O | · | · | i | 0.93 | -2.6 | -20 | 104
Cc1cccn2c(CN(C)CC3CCCCO3)c(C(=O)N3CCCCC3)nc12 (centres undefined) | · | · | i | 1 | · | 1 | 105
COc1ccc(CC(=O)Nc2ccccc2C(=O)N2CCOCC2)cc1 | -27 | 81 | i | 1.1 | -0.7 | -4 | 46
CCN1CCN(c2ncc(C(=O)Nc3cc(Cl)ccc3OC)c3ccccc23)CC1 | -78 | 107 | · | · | 0.2 | 2 | 103
Cc1ccc(S(=O)(=O)N2CCC(CN3C(=O)c4cccc5cccc(c45)C3=O)CC2)cc1 | -3 | 72 | i | 0.8 | -0.6 | -6 | 111
O=C(CCCc1c[nH]c2ccccc12)NCc1cccs1 | · | · | i | 0.93 | · | 2 | 98
CCOc1cc(/C=C2\SC(=N)N(c3nonc3N)C2=O)ccc1OCCN1CCOCC1 | · | · | i | 0.88 | · | -8 | 105
O=C(N/N=C/c1ccccc1)c1[nH]ncc1Br | · | · | i | 0.87 | · | 3 | 105
Cc1occc1C(=O)Nc1cccnc1 | 25 | 134 | i | 1.1 | -1.2 | -6 | 73
CC1CCN(C(=O)CCc2ccc(S(=O)(=O)NC(C)(C)C)cc2)CC1 | -7 | 88 | i | 0.76 | -2.0 | -8 | 99
O=C(NNc1cccc(Cl)c1)c1cccnc1Cl | -37 | 108 | i | 0.96 | -0.7 | -7 | 105
COc1cc(-c2nc3cnccc3n2C)cc(OC)c1OC | 21 | 31 | i | 0.95 | -1.6 | -17 | 101
CCOC(=O)c1cccc(P(C)(C)=O)c1 | -16 | 112 | i | 0.98 | -1.4 | 0 | 104
CCCCOC(=O)C1CCC[C@@H](C)N1 (some centres undefined) | -28 | 170 | i | 1 | -2.0 | -2 | 102
O=C(NCc1nc(-c2ccc(C(F)(F)F)cc2)no1)c1cccs1 | · | · | i | 1.1 | · | · | 102
CC(=O)Oc1ccccc1C(=O)Oc1ccc(/C=N/n2cnnc2)cc1 | · | · | i | 0.68 | -1.6 | 10 | 100
C/C(=N\NC(=O)OC(C)(C)C)c1cccc([N+](=O)[O-])c1 | · | · | i | 1 | -1.4 | -7 | 93
COc1cc(OC)cc(-c2nc3ccccc3c(=O)n2OC(=O)c2ccc(C)c(C)c2)c1 | 14 | 114 | i | 1 | 1.7 | -14 | 86
CCOc1ccc(NC(=O)CNC(=O)c2ccc([N+](=O)[O-])cc2)cc1 | · | · | i | 0.95 | · | -1 | 93
Cc1ccccc1NC(c1cccc(Cl)c1)c1nnnn1C1CCCCC1 (centres undefined) | -48 | 79 | i | 0.9 | -0.5 | -3 | 105
Cc1ccc(S(=O)(=O)N(C)Cc2nc(-c3ccccn3)no2)cc1 | -2 | 121 | i | 1 | -2.1 | -5 | 103
CCC(=O)N(C)/C=C1\Sc2ccccc2C1=O | -29 | 84 | i | 0.9 | -0.9 | -5 | 103
COc1cc(C2CC(=O)c3c(ccc4ccccc34)N2)ccc1O (centres undefined) | · | · | i | 1.1 | 1.2 | 2 | 100
Cc1ccc(S(=O)(=O)N(C)C)cc1NC(=O)Cn1c(CN2CCOCC2)nc2ccccc2c1=O | · | · | i | 0.94 | · | 8 | 106
CC(=O)c1ccc(OCCCC(=O)OCC(=O)N2CCN(c3ccccc3)CC2)cc1 | · | · | i | 0.95 | 68* | 6 | 91
Cc1nc2ccccc2n1CCc1nc2c3ccccc3nc(SCC#N)n2n1 | -38 | 221 | · | · | 2.9 | -5 | 103
O=c1cc(N2CCc3ccccc3C2)[nH]c(=O)n1Cc1ccc(F)cc1 | -30 | 100 | i | 0.87 | -1.6 | -15 | 103
O=C(NCc1ccccn1)c1cc(-c2ccc(Cl)cc2)nc2ccccc12 | -54 | 146 | i | 0.97 | -1.2 | 6 | 106
Cc1cc(C)c(NC(=O)CN(c2ccccc2)S(=O)(=O)N(C)C)c(C)c1 | · | · | i | 0.84 | -2.2 | 0 | 99
CC1(C(=O)CSc2nc3ccccc3s2)CCC(=O)O1 (centres undefined) | · | · | i | 0.95 | -1.2 | -5 | 109

Screening results: PubChem, several laboratories
